# Source: PubChem
# Yeast UUG start = modulators of yeast start codon fidelity, primary screen, whole organism, S. cerevisiae, single point, plate reader; 350,000 tested, 0.13% active; S. cerevisiae UUG-firefly luciferase reporter, luminescence/redox ratio; activity score, % at 18.7 µM; AID 602363, 2012;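 active = replicate mean at a twofold rise or more, about +100% in these data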;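 note: firefly luciferase made from a UUG start codon reports start codon fidelity; reporter light over untreated wells divided by growth signal over untreated wells; some hits fall short of that in this replicate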
# eIF4H FP inh = human eIF4H binding inhibitors, primary screen, translation initiation inhibitor project, biochemical, uHTS, fluorescence polarization | Eukaryotic translation initiation factor 4H (Homo sapiens), Q15056 | eIF4H fluorescence polarization binding assay | inhibition, % at 35 µM | 290,000 tested, 0.94% active | AID 2012, 2009;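 active = 50% or more with normal probe brightness, or confirmed in later tests; inconclusive = above 50% with abnormal brightness, or retests that disagree; inactive = below 50% or failed in later tests; about a fifth of its hits are not listed in these tables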;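 note: calls also rest on retests at 20 µM and on dose response follow-up; 0% = protein and probe with vehicle and 100% = probe without protein; strong numbers were not always called active; many hits fall short of the cut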
# CSC inhib = cancer stem cell viability inhibitors, primary screen, luminescence; cancer stem cell-like cells viability; inhibition, % at 7.5 µM; 300,000 tested, 1.1% active; AID 2717, 2010;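 active = mean at 75% or more and at least half the replicates too; inconclusive = mean and replicates disagree; tested in HMLE shEcad cells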;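 note: 0% = median of negative and 100% = median of positive control wells; the first replicate is given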
# Rce1 inh = yeast Rce1p protease inhibitors, primary screen, biochemical, fluorescence, cell-free homogeneous | CAAX prenyl protease 2 (Saccharomyces cerevisiae (strain ATCC 204508 / S288c)), Q03530 | yeast membranes, quenched prenylated peptide cleavage fluorescence | calls only | 290,000 tested, 0.27% active | AID 2563, 2010;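 active = fall in fluorescence gain of 50% or more versus controls, with final raw signal at or below 3038400; inconclusive = same 50% fall but final raw signal above 3038400; inactive = fall in fluorescence gain under 50%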;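 note: plate controls were neutral control wells for no effect and wells lacking membranes for full effect; tested at 10 µM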
# Target sequence (Q03530 whole entry, looked up): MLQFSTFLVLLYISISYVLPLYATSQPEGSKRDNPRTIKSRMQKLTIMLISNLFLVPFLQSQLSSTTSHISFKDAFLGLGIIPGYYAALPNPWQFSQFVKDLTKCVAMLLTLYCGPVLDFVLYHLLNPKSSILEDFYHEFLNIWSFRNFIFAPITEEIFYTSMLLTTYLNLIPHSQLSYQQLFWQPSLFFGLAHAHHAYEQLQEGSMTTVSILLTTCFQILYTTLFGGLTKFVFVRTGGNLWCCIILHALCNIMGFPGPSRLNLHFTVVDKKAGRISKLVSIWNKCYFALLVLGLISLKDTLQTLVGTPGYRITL
# PABP polyA inh = PABP poly(A) RNA binding inhibitors, primary screen, biochemical, fluorescence polarization, uHTS | inhibition, % at 35 µM | 290,000 tested, 1% active | AID 2014, 2009;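 active = 50% or more with normal probe brightness, or confirmed in later tests; inconclusive = above 50% with abnormal brightness, or retests that disagree; inactive = below 50% or failed in later tests; about a fifth of its hits are not listed in these tables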;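 note: calls also rest on retests at 20 µM and on dose response follow-up; controls were probe without protein and protein plus probe with vehicle; some compounds called inactive have numbers as strong as hits; many hits fall short of the cut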
# MT1-MMP act inh = blockers of MT1-MMP proenzyme processing, primary screen, HT1080 RFP-PRO-GFP cells, GFP/RFP fluorescence; Matrix metalloproteinase-14 (Homo sapiens), P50281; GFP/RFP ratio fluorescence, overnight; percent of plate control window, DMSO zero; GFP/RFP ratio change, % at 20 µM; 360,000 tested, 0.061% active; AID 651647, 2012;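 active = GFP/RFP ratio change of at least 30% with cell ATP level not reduced by more than half and red fluorescence within 50% of control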; note: strong numbers were not always called active
#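 Material: RFP-PRO-GFP reporter HT1080 cells. Dosing: single-point 20 µM compound, 1% DMSO. Controls: DMSO and RFP-L50D-GFP cell wells. Timing: cells overnight before dosing, compound overnight, 37 °C, 5% CO2. Measure: GFP/RFP fluorescence ratio.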
# Env fusion inh = inhibitors of HIV-1 Env-driven cell-cell fusion, primary screen, HeLa-JRFL effector, CEM21 target cells, luciferase; inhibition, % at 12.3 µM; 360,000 tested, 1.1% active; AID 651610, 2012;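 active = mean replicate inhibition score of at least 50 and every replicate individually at or above 50; inconclusive = only one of the two criteria met; inactive = mean below 50 and not all replicates reaching 50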;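 note: 0% = plate neutral controls and 100% = maraviroc near 300 nM; one replicate is shown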
# eIF4H FP inh retest = second read-out of eIF4H FP inh, no call of its own (marks repeat the call); inhibition, %; compound at 20 µM; confirmation average;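 mean of two retest wells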
# PABP polyA inh retest = recorded beside PABP polyA inh, whose call it bears; inhibition, %; compound at 20 µM; confirmation repeats;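 mean of two retest wells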
# MT1-MMP act inh RFP = also measured in MT1-MMP act inh; calls as there; RFP signal change, %; measured here: RFP expression control read;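 0 = vehicle wells; hits needed this value within 50% of zero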
# The depositor's hits bear a star; i = inactive; ? = inconclusive; nt = no result given.
SMILES,Yeast UUG start,eIF4H FP inh,CSC inhib,Rce1 inh,PABP polyA inh,MT1-MMP act inh,MT1-MMP act inh RFP,Env fusion inh,others
Cc1cnc(C(=O)OCC(=O)Nc2ccc(C)c(S(=O)(=O)N3CCOCC3)c2)cn1,-17,nt,-5,nt,nt,4,4,-16,
COc1ccc(OCc2cc(=O)[nH]c3ccccc23)cc1,-7,-10,6,i,-1,4,-8,1,
CCOc1ccccc1N1CCN(C(=O)C2c3ccccc3Oc3ccccc32)CC1,nt,-2,61,i,-1,-10,-14,nt,
O=C(O)c1cc2nc(C3CC3)cc(C(F)(F)F)n2n1,-10,0,-11,i,3,2,5,12,
C1CCC(n2nnnc2CN2CCN(C3CCCC3)CC2)CC1,-15,-4,-2,i,2,5,4,nt,
Cc1cc(C)cc(NC(=O)C(c2ccccc2)N2CCN(CC(=O)N3CCCC3)CC2)c1 (stereo unspecified),-4,nt,nt,nt,nt,2,-1,-22,
COCCn1c(SCC(=O)Nc2ccc(F)cc2F)nc2c([nH]c3ccccc32)c1=O,-22,6,-6,i,-3,-3,0,5,
COc1ccccc1NC(=O)c1cc2ccccc2nc1C,nt,9,-2,i,-10,1,3,5,
CC(C)OCCCNC(=O)C1CCC(=O)N1C(C)C (stereo unspecified),-15,-8,2,i,2,0,4,nt,
CCCCOC(=O)c1ccc(NC(=O)C(=O)NCCN(CC)CC)cc1,-7,6,28,i,5,5,-1,3,
CC1CN(S(=O)(=O)c2cccc(C(=O)NCCC3=CCCCC3)c2)CC(C)O1 (stereo unspecified),-12,nt,nt,i,nt,1,-11,14,
CCCCCC(=O)N/N=C(\C)c1ccc(NC(=O)c2ccco2)cc1,-20,9,-11,i,-9,4,7,nt,
CCc1ccccc1NC(=O)C1CCCN(S(=O)(=O)c2c(C)noc2C)C1 (stereo unspecified),-10,5,-16,i,1,-9,1,38,
Cc1cc(=O)oc2c3c(cc(OCC(=O)NCC4CCC(C(=O)O)CC4)c12)OC(C)(C)CC3 (stereo unspecified),-5,3,0,i,11,-1,0,nt,
COC(=O)c1cccc(N2C(=O)c3ccccc3S2(=O)=O)c1,-2,2,-7,i,13,-1,2,7,
CS(=O)(=O)N1CCC(C(=O)N2CCN(c3ccccc3F)CC2)CC1,nt,5,0,i,3,-2,-3,13,
CCN(CC)S(=O)(=O)c1ccc(N2CCN(C)CC2)c(NC(=O)CSCC(=O)Nc2cccc(C)c2)c1,-16,nt,-1,i,nt,-3,-1,?,
Cc1cccc(CN2CCC(C(=O)Nc3cccc(-c4cccc(F)c4)c3)CC2)n1,-24,-16,-11,i,-16,2,-2,-1,
O=C(/C=C/c1c(Cl)nc2ccccn12)N1CCN(c2ccccc2F)CC1,-2,-10,13,i,-3,7,4,-27,
CCCC(=O)Nc1ccc(-c2nc3ncccc3o2)cc1,-19,2,-3,i,20,4,-2,-40,
O=C(Nc1ccccc1)c1cc(C2CCCN(C(=O)C3CC3)C2)on1 (stereo unspecified),-75,nt,nt,nt,nt,0,2,17,
Cc1ccc(-c2ccc(CN3C(C(C)C)C(=O)N(Cc4cn(CCC5OCCO5)nn4)CCS3(=O)=O)cc2)cc1 (stereo unspecified),4,nt,nt,nt,nt,0,-10,9,
Cc1ccc(C(C(=O)NC(C)(C)C)N(CC2CCCO2)C(=O)CCC(=O)Nc2ccccn2)cc1 (stereo unspecified),12,-1,18,i,8,-3,1,-5,
CCOC(=O)N1CCN(C(=O)c2cc3sccc3n2C)CC1,2,3,-15,i,15,8,2,nt,
COC(=O)C(CC(C)C)NC(=O)c1cc(OC)c(OC)c(OC)c1 (stereo unspecified),-10,-4,0,i,-10,5,2,-12,

# 3 compounds drawn at random from the list so far, as already listed:
SMILES,Yeast UUG start,eIF4H FP inh,CSC inhib,Rce1 inh,PABP polyA inh,MT1-MMP act inh,MT1-MMP act inh RFP,Env fusion inh,others
CCc1ccccc1NC(=O)C1CCCN(S(=O)(=O)c2c(C)noc2C)C1 (stereo unspecified),-10,5,-16,i,1,-9,1,38,
CC1CN(S(=O)(=O)c2cccc(C(=O)NCCC3=CCCCC3)c2)CC(C)O1 (stereo unspecified),-12,nt,nt,i,nt,1,-11,14,
CCOc1ccccc1N1CCN(C(=O)C2c3ccccc3Oc3ccccc32)CC1,nt,-2,61,i,-1,-10,-14,nt,

# The listing picks up; the three compounds before the break are reprinted first.
SMILES,Yeast UUG start,eIF4H FP inh,CSC inhib,Rce1 inh,PABP polyA inh,MT1-MMP act inh,MT1-MMP act inh RFP,Env fusion inh,others
Cc1ccc(C(C(=O)NC(C)(C)C)N(CC2CCCO2)C(=O)CCC(=O)Nc2ccccn2)cc1 (stereo unspecified),12,-1,18,i,8,-3,1,-5,
CCOC(=O)N1CCN(C(=O)c2cc3sccc3n2C)CC1,2,3,-15,i,15,8,2,nt,
COC(=O)C(CC(C)C)NC(=O)c1cc(OC)c(OC)c(OC)c1 (stereo unspecified),-10,-4,0,i,-10,5,2,-12,
Cc1ccc2c(C(=O)CN3CCN(C4CCCCC4)CC3)c(C)[nH]c2c1,-3,-5,nt,i,-2,-3,0,nt,
CCc1ccc(N2C(=O)CC(N3CCC(C(=O)OC)CC3)C2=O)cc1 (stereo unspecified),-20,3,27,i,6,0,4,5,
O=C(OCc1ccc(Br)cc1)c1cccnc1Cl,-8,-12,-16,i,-1,3,6,-8,
Cc1c(C(=O)N/N=C/c2c(O)ccc3ccccc23)nnn1-c1nonc1N,-12,1,nt,i,0,-7,-1,43,
COc1ccc(Cc2nnc(NC(=O)CSc3ccccc3)s2)cc1,nt,-5,nt,i,-3,1,-1,nt,
O=C(CN=C1NC(=O)C(c2ccccc2)(c2ccccc2)N1)NCc1ccc(F)cc1,nt,5,-6,i,-10,-4,0,nt,
Cc1ccccc1-c1nc(CS(=O)(=O)CC(=O)NC(C)c2ccccc2)c(C)o1 (stereo unspecified),-4,-15,-15,i,-8,1,-2,3,
O=C1N[C@@H](c2ccccc2)COC(=O)[C@H](Cc2ccc(F)cc2)C/C=C\C[C@@H]1CC(=O)N(CCO)Cc1ccccc1,-2,nt,9,nt,nt,7,-5,-67,
CC1CCN(C(=O)COC(=O)c2n[nH]c3ccccc23)CC1,-25,4,-4,i,4,-1,1,nt,
O=C(CSc1nnc(-c2cc3ccccc3cc2O)n1Cc1ccco1)c1ccc(F)cc1,-24,-6,-8,i,2,-4,-20,-23,
COCCN=c1scc(-c2ccc3c(c2)NC(=O)CO3)n1/N=C(\C)c1ccc(O)cc1,-7,87,21,i,43*,-33,-24,-9,eIF4H FP inh retest=31;PABP polyA inh retest=66*
Cc1ccc(N2CC(C(=O)Nc3nnc(SCCC4OCCO4)s3)CC2=O)cc1C (stereo unspecified),-16,6,-8,i,-3,2,0,15,
COc1ccc(-c2c(C)nn3c(N4CCCCCC4)cc(C)nc23)cc1OC,-8,4,9,i,9,-16,-29,-1,
CCOC(=O)CCSc1nc(C(C)(C)C)cc(C(F)(F)F)c1C#N,-14,-5,6,i,-3,3,-4,-7,
Cc1cn(-c2cc(NC(=O)c3ccc(C)c(NC(=O)c4cccc(-c5cn[nH]c(=O)c5)c4)c3)cc(C(F)(F)F)c2)cn1,-17,-3,-4,i,-4,-10,-1,nt,
COc1ccc(NS(=O)(=O)c2cccc(C(=O)N3CCN(C(=O)c4ccco4)CC3)c2)cc1,-6,nt,5,nt,nt,0,-6,3,
O=C(COc1ccc2c3c(c(=O)oc2c1)CCC3)NCCCN1CCCC1=O,-7,2,-16,i,15,2,3,11,
OC(c1ccc(Cl)cc1)c1ncc(-c2ccccc2F)[nH]1 (stereo unspecified),-7,nt,nt,nt,nt,4,-5,31,
COc1ccc(C2c3sc(=O)[nH]c3SC3C4CCC(C4)C23)cc1OC (stereo unspecified),1,6,-1,i,10,-1,-5,nt,
COc1ccc(-n2c(SC)nc3sc4c(c3c2=O)CCN(C)C4)cc1,-2,10,nt,i,-4,1,-1,-12,
CSCCC(NC(=O)c1ccccc1Br)C(=O)NNC(=O)c1cc(C)oc1C (stereo unspecified),-6,nt,0,nt,nt,0,3,-4,
CCCn1c(/C=N/Nc2nc3ccccc3[nH]2)nc2ccccc21,nt,8,nt,nt,-6,7,-8,33,
COc1cccc(NC(=O)C2CCCN(S(=O)(=O)c3ccc(-n4cnnn4)cc3)C2)c1 (stereo unspecified),-11,7,nt,i,-3,-12,-12,nt,
O=C(COc1ncnc2ccccc12)NC(=O)NCc1ccccc1,-21,nt,-11,i,nt,6,5,-81,
CCn1nc(C)c(CNC(=O)CC2C(=O)NCCN2CC(C)C)c1C (stereo unspecified),-17,7,-8,i,2,6,10,-17,
# Continued.
SMILES,Yeast UUG start,eIF4H FP inh,CSC inhib,Rce1 inh,PABP polyA inh,MT1-MMP act inh,MT1-MMP act inh RFP,Env fusion inh,others
COc1ccc(Cc2nnc(SCC(=O)N(C)c3ccccc3)o2)cc1,-5,3,-3,i,10,1,3,-81,
COC(=O)CSCC(=O)Nc1nnc(-c2ccccc2C)s1,nt,-5,-7,i,-8,-10,1,-11,
CN(CCC#N)c1ncnc2scc(-c3ccccc3)c12,-7,-7,-17,i,-17,-2,-1,nt,
CCOc1cc(C(=S)N2CCOCC2)ccc1OC(=O)c1ccc(C)cc1,-8,-5,-3,i,5,-4,-1,-14,
COc1ccnc(CS(=O)c2nc3cc(C(O)(F)F)ccc3[nH]2)c1OC (stereo unspecified),-23,12,-8,i,7,1,2,-9,
CC(C)CN(C(=O)COC(=O)COc1ccc2ccccc2c1)c1c(N)n(Cc2ccccc2)c(=O)[nH]c1=O,4,nt,-3,i,nt,1,5,4,
CCOC(=O)CCCN1CC(O)=C(c2nc3ccccc3s2)C1=N,nt,3,-6,i,-38,1,5,17,
CC(=O)N/C(=C/c1ccc2c(c1)OCO2)C(=O)NCCO,1,-6,-4,i,-12,0,11,nt,
O=C(CCCN1C(=O)c2cccc3cccc(c23)C1=O)N1CCc2ccccc2C1,2,2,nt,i,-9,1,3,nt,
C#CCSc1n[nH]c(=O)n1-c1cccc(C(F)(F)F)c1,nt,1,-6,i,-1,6,-7,22,

# 2 neighbouring compounds out of the list so far:
SMILES,Yeast UUG start,eIF4H FP inh,CSC inhib,Rce1 inh,PABP polyA inh,MT1-MMP act inh,MT1-MMP act inh RFP,Env fusion inh,others
O=C(CCCN1C(=O)c2cccc3cccc(c23)C1=O)N1CCc2ccccc2C1,2,2,nt,i,-9,1,3,nt,
C#CCSc1n[nH]c(=O)n1-c1cccc(C(F)(F)F)c1,nt,1,-6,i,-1,6,-7,22,

# Compounds as they come; 3% or so of the library scored in one or more.
